VACV mCherry inh = qHTS for Stage-Specific Inhibitors of Vaccinia Orthopoxvirus: mCherry Reporter Primary qHTS; Vaccinia virus mCherry reporter infection, fluorescence; about a quarter of the inactives have no number; Potency, µM (doses to about 36.5 µM), for inactives: at the top dose activity change, negative = inhibition, actives largely listed as inhibitors; 0.63% of 310,000 active; AID 720579, 2013; active = well fitted inhibition curve with a large enough effect; inconclusive = small, poorly fitted or top-dose-only effect; inactive = no such curve, though single readings can be large or run the other way; tested in A549 cells; note: nearly all actives have a fitted effect of over 35% in size; inactives centre near -10
VACV Venus inh = qHTS for Stage-Specific Inhibitors of Vaccinia Orthopoxvirus: Venus Reporter Primary qHTS | Vaccinia virus Venus reporter expression, fluorescence | Potency, µM (highest dose often 36.5 µM), without a hit: top-dose activity change, negative = inhibition, most hits filed as inhibitors | 0.46% of 330,000 active; active means well fitted inhibition curve with a large enough effect; inconclusive means small, poorly fitted or top-dose-only effect; inactive means no such curve, though single readings can be large or run the other way; tested in A549 cells; note: nearly all actives have a fitted effect of over 30% in size; inactives centre near -10
The depositor's hits bear a star; i = inactive; ? = inconclusive; / = no result given; & = joins results of further samples; [ ] = remark or other dose. % is set by controls: 0 for no effect and ±100 for the full control effect; potency is the fitted concentration of half-maximal effect.

SMILES	VACV mCherry inh	VACV Venus inh
Cc1cccc2cc3ccccc3nc12	-20%&5%	0%&9%
CC(=O)Nc1ccc(OCCF)cc1	-6%	-11%
O=C(NC1CCCC1)C1C(c2ccc(C(F)(F)F)cc2)=Nc2ccccc2N1C(=O)c1ccco1 (stereo not given)	-12%	-27%
COc1ccc(CCNC(=O)CC2SC(=NCCC(C)C)NC2=O)cc1OC (stereo not given)	i	-14%
Cc1ccc(S(=O)(=O)Cn2nnnc2C(CC(C)C)N2CCN(C(=O)c3ccco3)CC2)cc1 (stereo not given)	-12%	-18%
CCN1CCc2c(OCC(=O)Nc3cccc(C)c3)cccc2C1=O	-9%	5%
Cc1ccc(NC(=O)CSc2nn(-c3ccc(Cl)cc3)c(=S)s2)cc1S(=O)(=O)N(C)C	?	?
O=C(c1ccc(Cn2ccc([N+](=O)[O-])n2)cc1)N1CCN(Cc2ccccc2)CC1	-27%	-22%
Cc1cccc(NC(=O)CNC(=O)c2cccc(-n3cccc3)c2)c1C	-1%	-15%
O=c1c2ccccc2nc2oc3ccccc3n12	-7%	17%
O=C(Nc1ccc(F)c(Cl)c1)c1cc(C2CCCCN2C(=O)c2ccc(Cl)cc2)on1 (stereo not given)	0%	-4%
O=C1C(=O)c2ccccc2C(O)=C1CC=C(Cl)Cl	?	20%
CCOC(=O)c1c(S(=O)(=O)N2CCCC(C(=O)N3CCN(c4ccc(F)cc4)CC3)C2)c(C)n(C)c1C (stereo not given)	-18%	-10%
O=C(CSc1ncn[nH]1)c1cc2ccccc2o1	14%	9%
CC(=O)N1CCN(C(=O)COc2ccc3oc4c(c3c2)CCCC4)CC1	i	-21%
CCN(C(=O)c1sc2nc3n(c(=O)c2c1C)CCCC3)c1ccccc1F	-19%	-14%
CCOC(=O)C1(C)CCCN(C(=O)c2cccnc2SC)C1 (stereo not given)	26%	-2%
N#C/C(=C/c1ccc(Sc2nc3ccccc3[nH]2)o1)c1cccc(Br)c1	20µM*	?
COc1ccc(C)cc1NC(=S)N1CCOCC1	i	-8%
CCN(CC)S(=O)(=O)c1ccc(N2CCOCC2)c(NC(=O)c2ccc(F)cc2)c1	-14%	-10%
COC(=O)c1cccc(S(=O)(=O)N2CCC(c3nc4ccccc4o3)CC2)c1	-7%	-5%
COc1ccc(/C=N/n2cnnc2SCc2ccccc2)cc1	/	-14%
CC1=C(C(=O)OCC(C)C)C(c2ccc(F)cc2)NC(=O)N1 (stereo not given)	i	-25%
CCOc1ccc(N=Nc2c(C)noc2C)cc1	i	-13%
CCn1nc(NS(=O)(=O)c2ccc(C)cc2)c2cc3ccccc3nc21	-12%	-3%
CCN(CC)c1ccc(NC(=O)c2cnn(CC)c2)cc1	/	-28%
Cc1ccc(NC(=O)N2CCCCC2)cc1NC(=O)N1CCCCC1	-11%	-7%
CCOC(=O)c1c(C)c(C(=O)NCCc2ccc(S(N)(=O)=O)cc2)c(C)n1CC	2%	-1%
CCn1cc(C(=O)NCCO)c(=O)c2cc(F)c(N3CCN(C)CC3)cc21	i	1%
CCS(=O)(=O)N1CCC(C(=O)NCc2cccs2)CC1	-7%	3%
O=C(CSCc1cccc(F)c1)NCc1ccccc1	-15%	-16%&-10%
CCCn1c(C)cc(C(=O)CN2C(=O)c3ccccc3C2=O)c1C	-17%	-2%
CCCCCc1cc(=O)oc2c(C(CCN(CC)CC)c3cc(OC)c(OC)c(OC)c3)c(OC)cc(OC)c12 (stereo not given)	?	?
CCCn1cc(S(=O)(=O)c2cccc(Cl)c2)c(=O)c2cc(F)c(N3CCN(CC)CC3)cc21	-23%	-11%
C[C@H](c1ccccc1)N1C[C@H](COCc2ccccc2)Oc2cc(N3CC[C@H](N(C)C)C3)ccc2S1(=O)=O	-7%	-6%
N#Cc1cccc(OCCCN2CCC(C(O)(c3ccccc3)c3ccccc3)CC2)c1	-14%	-11%
CC(C)n1nnnc1C1c2ccccc2C(=O)N1Cc1ccccc1 (stereo not given)	-7%	-9%
CN(C)c1ccc(/C=C/c2ccnc3ccc(Cl)cc23)cc1	37%[activator]	6%
CC(=O)c1cccc(NC(=O)C2CC(=O)N(c3ccc4c(c3)OCCO4)C2)c1 (stereo not given)	i	-11%
O=C(O)/C=C\c1cn(-c2ccccc2)nc1-c1cc2ccccc2o1	-20%	-18%

Part of the list above, reformatted:
smiles | VACV mCherry inh | VACV Venus inh
CN(C)c1ccc(/C=C/c2ccnc3ccc(Cl)cc23)cc1 | 37%[activator] | 6%
CCOC(=O)c1c(C)c(C(=O)NCCc2ccc(S(N)(=O)=O)cc2)c(C)n1CC | 2% | -1%
CCn1nc(NS(=O)(=O)c2ccc(C)cc2)c2cc3ccccc3nc21 | -12% | -3%
CCCn1cc(S(=O)(=O)c2cccc(Cl)c2)c(=O)c2cc(F)c(N3CCN(CC)CC3)cc21 | -23% | -11%

Next section.
SMILES	VACV mCherry inh	VACV Venus inh
COc1ccc([C@H]2CC(=O)C=C(c3ccccc3)C2)cc1	i	-8%
Cc1cc(NC(=O)/C(C#N)=C/c2ccco2)n(-c2ccccc2)n1	-4%	5%
CC(=O)NCCNC(=O)C1Cc2c(-c3cccc(NC(C)=O)c3)ccnc2O1 (stereo not given)	-1%	6%
Cc1csc2c(=O)sc(NC(=O)c3ccc(F)cc3)nc12	-13%	0%
COc1cccc(CN(C)Cc2c(O)ccc3ccccc23)c1	?	-23%
O=C(CSc1cn[nH]n1)Nc1cccc(C(F)(F)F)c1	-23%	7%
C=C(C)CSc1nnc(-c2ccc(OC)cc2)n1N	-5%	-3%
CC(O)(c1cccc(F)c1)c1nc(-c2ccoc2)cs1 (stereo not given)	18%	-9%
C=C[C@H]1CN2CC[C@H]1C[C@@H]2[C@@H](O)c1ccnc2ccccc12	i	-10%
OCCCc1nc2n(n1)C(c1cccc(Cl)c1)C=C(c1ccccc1)N2 (stereo not given)	-13%	-20%
Cc1cc(OCC(=O)N2CCOCC2)cc2oc(=O)c3ccccc3c12	/	-14%
S=C1NCCc2ccccc2C1c1ccccc1 (stereo not given)	i	-15%
CCOc1cc(/C=C2/NC(=O)N(CC(=O)OC)C2=O)ccc1OC	-3%	-14%
CC(CNC(=O)COc1ccccc1)OC(=O)Nc1cccc(Cl)c1 (stereo not given)	-7%	-2%
O=C(O)CCS(=O)(=O)Cc1ccccc1Cl	-12%	-6%
Cc1cc[n+](Cc2ccc([N+](=O)[O-])cc2)cc1	1%	-3%
Cc1ccc(CCNC(=O)CN2C(=O)COc3ccccc32)cc1	-6%	-5%
CCN(CC(=O)Nc1c(F)cccc1F)C(=O)c1ccc(=O)n(Cc2ccccc2)n1	-13%	-8%
Cc1cccc(CN2C(=O)c3ccccc3Sc3ccc(C(=O)NC4CCCCC4)cc32)c1	-19%	-7%
O=C(Nc1ccccc1O)c1c(O)c2c([nH]c1=O)CCCC2	18µM*	?
Cc1nc(N)nc(COc2ccccc2)n1	-11%	-18%
CN(C)c1cc[n+](CC(=O)c2ccc(Br)cc2)cc1	i	-7%
COc1ccc(S(=O)(=O)N/N=C\c2ccccc2F)cc1	-3%	-29%
COc1ccc2c(c1)c(C(=O)CN1CCN(Cc3ccccc3)CC1)c(C)n2C	-7%[7.34 µM]	-2%[7.34 µM]
CC(=O)NS(=O)(=O)c1ccc(NC(=O)CCC2CCCC2)cc1	i	-13%
COCCCn1c(C)nnc1-c1cnn(-c2ccccc2)c1N	-17%	-12%
O=C1NC2(CCCC2)C(=O)N1CCS(=O)(=O)Oc1ccccc1	-20%	-18%
O=C(NC1CCCCCC1)c1ccc2c(c1)sc1nc(-c3ccccc3)cn12	-20%	-19%
OC(c1ccccc1)C1CN(Cc2ccccc2)CCC1(O)c1ccccc1 (stereo not given)	-6%	-20%
COc1cc(/C=N/NC(=O)CCC(=O)Nc2ccc(F)cc2)ccc1O	-13%	-4%
CCc1nc(-c2cc(S(=O)(=O)N3CCN(c4ccccc4F)CC3)ccc2OC)no1	-12%[7.34 µM]	-3%[7.34 µM]
O=C1CCCCN1CCCC(=O)N1CCCC(Nc2ccccc2)C1 (stereo not given)	i	-11%
Cc1cccc(C)c1NS(=O)(=O)c1ccc(OCCNS(C)(=O)=O)cc1	-11%	-20%
O=C(c1ccc(NS(=O)(=O)c2ccc(F)cc2)cc1)N1CCCCCC1	-11%	-6%
CCCCC(O)C1=C[N+](=O)CC=C1 (stereo not given)	1%	-3%
O=C(NCc1ccc(F)cc1F)[C@@H]1CCCN1C(=O)[C@@H]1CCCN1C(=O)c1cccc(Cl)c1	-9%	-1%
COc1ccc(CCNC(=O)c2ccc(CN3CCC(Cc4ccccc4)CC3)cc2)cc1	-11%	-13%
O=C(Nc1nnc(-c2cc(Cl)ccc2Cl)o1)c1ccco1	i	-6%
O=C1C2C3c4ccccc4C(c4ccccc43)C2C(=O)N1CN1CCOCC1 (stereo not given)	-4%	0%
N#Cc1cc2c(nc1SCc1cccnc1)CCCCC2	i	-16%

Record cards (already shown). Screens in order: VACV mCherry inh | VACV Venus inh
Cc1cccc(C)c1NS(=O)(=O)c1ccc(OCCNS(C)(=O)=O)cc1 is entered as -11% | -20%
Cc1nc(N)nc(COc2ccccc2)n1 is entered as -11% | -18%

Other compounds follow.
SMILES	VACV mCherry inh	VACV Venus inh
Cc1oc(S(=O)(=O)N2CCOCC2)cc1C(=O)Nc1ccc(Cl)cc1	i	-3%
Nc1nc2c(ncn2[C@@H]2O[C@H](CNCc3ccc(F)c(N4CCOCC4)c3)[C@@H](O)[C@H]2O)c(=O)[nH]1	8%	0%
CCOc1ccc(N2C(=O)Nc3ccccc3C2(O)C(=O)N2CCN(c3ccccn3)CC2)cc1 (stereo not given)	-3%	-15%
CCc1noc(C)c1C(=O)NCCc1ccc(OC)c(OC)c1	-10%	-10%
O=C(Nc1ccc(N2CCOCC2)cc1)c1ccc(S(=O)(=O)N2CCCCC2)cc1	-15%	-12%
O=C(NCCc1ccc(Cl)cc1)C1CCN(C(=O)c2ccc(F)cc2)CC1	-20%	-3%
Cc1cccc(-c2oc3ccccc3c2C#CCCO)c1	i	-2%
COc1ccc(S(=O)(=O)NCC2CCCO2)cc1NC(=O)c1ccccc1 (stereo not given)	i	-14%
COc1cc2c(cc1OC)CN(c1nc(CN3CCOCC3)nc3sc4c(c13)CCC(C)C4)CC2 (stereo not given)	-11%	-22%
C[C@H](CO)N1C[C@H](C)[C@@H](CN(C)C(=O)Oc2ccccc2)OCc2cnnn2CCCC1=O	-17%	-12%
C=CCOC(=O)C1=C(C)NC(SCC(=O)Nc2nccs2)=C(C#N)C1c1cccs1 (stereo not given)	-17%	-28%
CC1Cc2nc(SCC(=O)N3CCCCC3)n(C)c(=O)c2S1 (stereo not given)	-14%	-6%
O=C(Nc1ncc(S(=O)(=O)c2ccc([N+](=O)[O-])cc2)s1)c1cccc2ccccc12	-24%	-2%
Cc1cc([N+](=O)[O-])ccc1NC(=O)C(C)NC1CCCCC1 (stereo not given)	7%	4%
Cc1cc(N(C)C)c(C)cc1/C=C/c1ccnc2ccccc12	-26%	12%
COc1cc(CCC(=O)OCC(=O)Nc2ccc(C)cc2Br)cc(OC)c1OC	-13%	-3%
O=S(=O)(NC(=S)c1ccccc1)c1ccc(F)cc1	-27%	-5%
CC(=O)c1cccc(NC(=O)CSc2n[nH]c(=O)n2C2CC2)c1	0%	-13%
Cc1ccc(CNC(=O)CSc2ccsc2[N+](=O)[O-])cc1	i	-12%
CCOc1cccc(C(=O)N(Cc2ccc(N(C)C)cc2)CC2CCCO2)c1 (stereo not given)	-10%	-6%

Some of the entries so far, in markdown:
| canonical_smiles | VACV mCherry inh | VACV Venus inh |
| --- | --- | --- |
| COc1cc(CCC(=O)OCC(=O)Nc2ccc(C)cc2Br)cc(OC)c1OC | -13% | -3% |
| O=S(=O)(NC(=S)c1ccccc1)c1ccc(F)cc1 | -27% | -5% |
| CC(=O)c1cccc(NC(=O)CSc2n[nH]c(=O)n2C2CC2)c1 | 0% | -13% |
| Cc1ccc(CNC(=O)CSc2ccsc2[N+](=O)[O-])cc1 | i | -12% |

Continued:
SMILES	VACV mCherry inh	VACV Venus inh
O=C(NCCc1ccccc1)c1ccc2c(=O)[nH]c3c(C(=O)NCC4CCCO4)sc(=S)n3c2c1 (stereo not given)	-3%	-3%
CN(C)CCOC(=O)c1sc2ccccc2c1Cl	-4%	-13%
COC(=O)c1cc(-c2ccc3c(c2)OCO3)nc2ccccc12	i	-4%
COc1ccc(C2c3ccc(O)cc3Oc3ncn(Cc4ccccc4)c(=N)c32)cc1OC (stereo not given)	-1%	-14%
O=C(Oc1ccc(N(Cc2cccs2)C2=NS(=O)(=O)c3ccccc32)cc1)c1ccc(Cl)cc1	i	-10%
O=S(=O)(Oc1ccccc1-c1ccccc1)c1ccccc1	i	-19%
C[C@@H]1CN([C@@H](C)CO)C(=O)CCCn2nncc2CO[C@H]1CN(C)S(=O)(=O)c1ccc(F)cc1	i	-17%
COc1ccccc1NC(=O)c1cc2c(=O)n(Cc3cccs3)ccc2nc1C	-18%	-14%
CCCCNC(=O)Cn1cnc2sc(C(=O)OCC)c(C)c2c1=O	-2%	?
CC1(c2ccc(Cl)cc2Cl)NC(=O)N(CC(=O)NC2CCCCC2)C1=O (stereo not given)	-6%	-12%
CCOC(=O)C(NC(=O)CCl)(Nc1sc(C)c(CC)c1C#N)C(F)(F)F (stereo not given)	10µM*	?
